Assay outcomes from PubChem.
Rango-impB inh: Rango-importin beta binding inhibition | Q14974 | Rango CFP/YFP FRET sensor + importin beta, 45 min | Potency, µM (highest dose often 92.2 µM), for the others: top-dose inhibition of complex formation | actives 0.031% (n = 340,000); active = rising FRET ratio curve, often small or poorly fitted; inconclusive = mostly compound fluorescence or quenching in the first reads; inactive = flat curves in all reads;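 note: potency is the fitted concentration of half-maximal effect; 0% = DMSO wells and 100% = buffer wells lacking importin beta; nearly all actives have a fitted effect of over 15% in size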
Target sequence (Q14974 whole entry, looked up): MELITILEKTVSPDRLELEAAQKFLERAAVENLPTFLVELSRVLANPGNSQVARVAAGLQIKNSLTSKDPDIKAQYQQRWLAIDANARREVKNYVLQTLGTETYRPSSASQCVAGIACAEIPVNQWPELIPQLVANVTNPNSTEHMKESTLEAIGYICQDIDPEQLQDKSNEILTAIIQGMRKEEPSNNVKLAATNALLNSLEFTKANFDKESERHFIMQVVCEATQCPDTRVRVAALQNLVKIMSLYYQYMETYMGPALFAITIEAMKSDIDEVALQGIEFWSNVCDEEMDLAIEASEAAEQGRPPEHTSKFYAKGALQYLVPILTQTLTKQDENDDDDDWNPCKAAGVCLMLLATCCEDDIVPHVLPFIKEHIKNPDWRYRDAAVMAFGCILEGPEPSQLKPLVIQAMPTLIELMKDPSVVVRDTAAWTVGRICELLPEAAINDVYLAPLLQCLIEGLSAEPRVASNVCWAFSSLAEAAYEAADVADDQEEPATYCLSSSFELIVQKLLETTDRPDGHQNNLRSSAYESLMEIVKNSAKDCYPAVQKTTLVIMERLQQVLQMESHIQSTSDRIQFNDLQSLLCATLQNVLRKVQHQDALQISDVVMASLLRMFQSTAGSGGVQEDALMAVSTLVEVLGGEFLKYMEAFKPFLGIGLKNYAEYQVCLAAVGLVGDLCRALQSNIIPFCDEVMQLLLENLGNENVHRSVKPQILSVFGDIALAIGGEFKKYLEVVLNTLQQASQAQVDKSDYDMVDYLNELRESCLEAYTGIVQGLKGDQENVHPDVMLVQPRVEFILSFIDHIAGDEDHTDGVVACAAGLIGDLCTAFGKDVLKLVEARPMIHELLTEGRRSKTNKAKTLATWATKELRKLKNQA
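FRET biosensor (snurportin 1 IBB flanked by EYFP and cerulean), 50 nM, with compound 5 min, then 0.125 microM importin beta in PBS, 1 mM DTT, 0.02% Tween-20, 0.1% BSA. CFP/YFP ratio read after 45 min at room temperature; pre-read flags interference.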
GLA inh pH 4.5: blocks human alpha-galactosidase A at pH 4.5; P06280; purified enzyme, 4-MU-alpha-Gal fluorescence, pH 4.5; activity change, negative = inhibition, % at 105 µM; 230,000 tested, under 10 active; AID 1467; inconclusive = small, poorly fitted or top-dose-only inhibition, or a rising curve; inactive = flat fitted curve, though single readings scatter; no compound was filed as active;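 note: 0% = full activity with enzyme and -100% = basal without enzyme; dose as in the result columns while the protocol names 77 µM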
miR-21 reporter: miR-21 reporter, rising signal | HeLa miR-21 FLuc reporter, luciferase, 48 h | Potency, µM (highest dose often 38.3 µM), for inactives: at the top dose reporter change, positive = more light | 340,000 tested, under 10 active; active = well fitted rising curve with a large enough effect; inconclusive = small, poorly fitted or top-dose-only effect; inactive = no such curve, though single readings can be large or run the other way;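 note: % of control where 0% means no effect; miR-21 action dims this reporter so a rising signal means less miR-21 action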
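HeLa cells endogenously expressing miR-21, stably carrying CMV-driven firefly luciferase with a downstream miR-21 binding site, 2000 cells/well. Titrations up to approximately 40 uM, 48 hours; luciferase luminescence read.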
Rango dissoc inh: prevents RanGTP from dissociating the Rango-importin beta complex | actives 0.071% (n = 340,000) | Potency, µM (highest dose often 46.1 µM), for inactives: at the top dose activity change, negative = inhibition | Biochemical FRET Rango-importin beta, RanGTP-induced dissociation; active means falling FRET ratio curve, often poorly fitted, with flat reads before Ran was added; inconclusive means other falling curves, or compound fluorescence or quenching; inactive means flat or rising ratio curve;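 note: potency is the fitted concentration of half-maximal effect; % of control where 0% means no effect; nearly all actives have a fitted effect of over 45% in size; -100% = wells without RanGTP and RCC1; the record marks most hits as doubtful in a second field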
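FRET read at 45 min, room temperature: inhibitors block the CFP/YFP signal rise when RanGTP (0.6 uM Ran, 2 mM GTP, 0.2 uM RCC1) frees Rango (0.1 uM) from importin beta (0.25 uM). Pre-read after 5 min compound exposure flags interference.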
An asterisk follows results filed as active; ? = inconclusive; / = not tested or not shown. The list is partial; the hit share may differ from the screen's.

SMILES	Rango-impB inh	GLA inh pH 4.5	miR-21 reporter	Rango dissoc inh
Cc1cccc(-n2c(SCC(=O)Nc3cccc(S(=O)(=O)NC4=NCCCCC4)c3)nc3ccccc3c2=O)c1C	1.3%	-17	4%	1%
COc1ccc(CC(=O)NCCc2ccc(Cl)cc2Cl)cc1	2.0%	-12	2%	0%
CCOc1ccc(NC(=S)NC(=O)/C=C/c2ccc(C)cc2)c([N+](=O)[O-])c1	3.3%	12	-10%	2%
O=C(CCS(=O)(=O)c1ccccc1)Nc1nc2c(s1)COc1ccccc1-2	-1.6%	-3	19%	-7%
COc1ccc(C(=O)Nc2nnc(Cc3cccs3)s2)cc1OC	3.0%	-10	9%	-15%
O=C(NCc1ccccc1)C1=C[C@@H](c2ccc(Br)cc2)C[C@@H](OCc2ccc(CO)cc2)O1	1.2%	-5	-1%	17%
CCOc1cccc(=O)c2c(C)n(-c3ccc(C(=O)O)cc3)c(C)c12	?	1	-1%	?
COc1ccc(Cn2c(=O)[nH]c3cc(C(=O)N4CCN(c5ccccc5F)CC4)ccc3c2=O)cc1	?	/	3%	8%
Cc1cc(S(=O)(=O)N2CCN(c3ccccn3)CC2)ccc1F	-1.6%	/	4%	-1%
S=c1nc[nH]c2c1cnn2Cc1ccccc1	?	/	8%	6%
CCO[C@H]1OC(C(=O)NCc2nc3ccccc3[nH]2)=C[C@@H](C2CCCCC2)[C@@H]1CCCO	-3.1%	-6	5%	-18%
CC(=O)Nc1cccc(OCCCNS(=O)(=O)c2ccc(F)cc2)c1	3.3%	3	0%	1%
Cc1c(NC(=S)NC(=O)C(C)(C)C)cccc1[N+](=O)[O-]	-1.5%	3	-1%	-9%
CCOC(=O)Nc1cc(NC(=O)OCC)c(C)nc1C	-2.8%	-10	-2%	49%
CC(Cc1c[nH]c2ccccc12)C(=O)NCc1ccco1 (stereo not given)	0.5%	/	1%	1%
Cc1ccc(F)c(NC(=O)C2CCCCC2C(=O)O)c1 (stereo not given)	-1.0%	-1	3%	6%
Cc1cccc(C(=O)Oc2c(Br)cc(Br)cc2/C=N/NC(=O)c2ccncc2)c1	-1.4%	/	7%	-10%
COc1ccc(C2C3=C(CC(C)(C)CC3=O)Oc3ncn(Cc4ccccc4)c(=N)c32)cc1 (stereo not given)	-1.5%	-5	8%	-8%
COc1cc2cc(CCOC(=O)c3ccc(C#N)cc3)oc(=O)c2cc1OC	0.3%	/	/	13%
C/C(=N\N(C)C)C1=C(O)c2ccccc2C1=O	-5.5%	1	-51%	21%
CCn1nc(C)c(CN2CCC(Oc3ccc(C(=O)N4CCCC4)cc3)CC2)c1C	-4.6%	/	10%	-7%
CC(C)(C)OC(=O)N1CCC(c2c(C(=O)NCC3CCN(C4CCCC4)C3)cnn2-c2ccccc2)CC1 (stereo not given)	-4.3%	/	-4%	27%
CCOC(=O)Cn1c(=O)n(CC(=O)OCC)c2ccccc21	-1.1%	-6	-7%	0%
O=C(CN1CCOCC1)Nc1cccc([N+](=O)[O-])c1	0.7%	/	/	-4%
CC(OC(=O)CN(C)S(=O)(=O)c1ccc(Cl)cc1)C(=O)Nc1ccc(N2CCOCC2)cc1 (stereo not given)	-2.1%	5	-11%	-18%

(further entries)
SMILES	Rango-impB inh	GLA inh pH 4.5	miR-21 reporter	Rango dissoc inh
S=c1[nH]nc(-c2cc(-c3ccco3)[nH]n2)n1-c1ccccc1Cl	1.5%	-14	-19%	-1%
c1ccc2c(c1)OCCc1c-2[nH]c2ccccc12	1.0%	/	-20%	-3%
O=C(COC(=O)c1cccc(C(F)(F)F)c1)NC(=O)NC1CCCC1	-1.1%	/	/	13%
N#Cc1ccccc1OCC(=O)OCC(=O)NC1CCS(=O)(=O)C1 (stereo not given)	-1.3%	/	/	16%
O=c1c2ccccc2nc2n1C(CSCc1ccc(Cl)cc1)CS2 (stereo not given)	3.9%	-1	7%	4%
CCOc1ccc(NC(=O)CN(C)C(=O)CCN2C(=O)C3CC=CCC3C2=O)cc1OCC (stereo not given)	-0.2%	/	/	-6%
Cc1ccc(S(=O)(=O)N2CCC(=O)N(CCOC(=O)Nc3ccccc3C)CC2)cc1	0.2%	3	-7%	-9%
O=C(N/N=C/c1cccc(O)c1)c1cc(C2CC2)nc2ccccc12	7.4%	/	11%	0%
CCC(C)NC(=O)C1CCC(CNS(=O)(=O)c2ccc3c(c2)CC(C)N3C(=O)C2CC2)CC1 (stereo not given)	5.7%	/	1%	11%
C=CCn1c2ccccc2c2nn(C)c(=S)nc21	-1.8%	/	-1%	-9%
CC(C)(C)c1ccc(C(=O)CSc2n[nH]c(=O)[nH]c2=O)cc1	-2.3%	2	-18%	2%
O=C(Nc1cccc(Br)c1)c1ccccc1-c1ccccc1	?	-27	-1%	-13%
O=C(NC1CCCCC1)N1CCCCCCC1	5.6%	-20	-3%	2%
Cc1ccc(N(CC(=O)N2CCOCC2)S(C)(=O)=O)cc1Cl	-1.2%	/	4%	-4%
CCCC(=O)NC(Nc1ccc(S(=O)(=O)Nc2cc(C)on2)cc1)(C(=O)OCC)C(F)(F)F (stereo not given)	2.8%	-5	-1%	-6%
O=C(c1ccco1)N1CCN(Cc2nc(-c3cccs3)no2)CC1	-0.5%	5	-23%	-6%
Cc1cc(NC(=O)CN2CCOCC2)n(-c2ccccc2)n1	-3.2%	1	4%	0%
O=C(NCc1cn(-c2ccccc2)nc1-c1ccccc1)c1ccc([N+](=O)[O-])cc1	-2.0%	-13	-14%	0%
Cc1nc2sc(C(c3ccc(Cl)cc3)N3CCN(CCO)CC3)c(O)n2n1 (stereo not given)	-4.2%	-2	1%	1%
Cc1ccc(N2C(=O)Nc3cc(Cl)c(Cl)cc3N2O)cc1Cl	-1.3%	-13	2%	3%
Cc1ccc(N2CCN(C(=O)N3CCOCC3)CC2)cc1C	-0.3%	1	-1%	12%
Cc1cc(C(=O)NCC2CCCO2)n(-c2ccccc2)n1 (stereo not given)	?	-4	-7%	1%
Nc1ccc(C(=O)Nc2ccc3c(O)cc(S(=O)(=O)O)cc3c2)cc1	-0.3%	/	/	-6%
COc1cc(C=O)ccc1OCCOc1ccccc1[N+](=O)[O-]	-4.1%	0	-38%	2%
CCOc1ccc2nc(SCC(=O)NCc3ccccc3OC)[nH]c2c1	1.6%	/	5%	2%

Later entries.
SMILES	Rango-impB inh	GLA inh pH 4.5	miR-21 reporter	Rango dissoc inh
O=C(COC(=O)c1ccc(O)cc1)NCC1COc2ccccc2O1 (stereo not given)	1.4%	/	/	-3%
C=CCn1c(SCC(=O)NCCc2ccccc2)nc2c([nH]c3ccccc32)c1=O	-0.1%	/	7%	-3%
Cc1ccc(Nc2ccc(NCc3ccccc3)nn2)cc1C	1.9%	-10	-59%	0%
CC1CCc2c(C(=O)N3CCN(S(=O)(=O)c4cccs4)CC3)csc2C1 (stereo not given)	-1.5%	-3	1%	4%
O=C1N[C@@H](c2ccccc2)COC(=O)[C@H](Cc2ccc(F)cc2)C/C=C\C[C@H]1CC(=O)N(CCO)Cc1ccccc1	3.4%	/	/	3%
O=C(CN1c2cccc3cccc(c23)S1(=O)=O)Nc1ccc(F)c(F)c1F	-3.1%	/	/	-7%
O=C(CN1C(=O)S/C(=C\c2ccccc2)C1=O)NNC(=O)c1ccccc1O	0.2%	3	-6%	-4%
CCN(CC)CCNc1nc2c(c(=O)n(C)c(=O)n2C)n1C/C=C(/C)Cl	2.4%	-10	10%	-4%
Cc1ccc2c(ccc(=S)n2C)c1	0.2%	/	-16%	-14%
COc1ccc(CCNCc2ccccc2N2CCCC2)cc1	-1.1%	/	11%	-22%
Cc1nc(SCC(=O)NCC(F)(F)F)c2c(-c3cccs3)csc2n1	5.3%	-2	-1%	-14%
CCOC(=O)c1ccc(N2C(=O)CC(N3CCN(C(=O)c4ccco4)CC3)C2=O)cc1 (stereo not given)	0.9%	2	-3%	2%
Cc1ccc(-c2nnc(SCC(=O)N3CCCC3)o2)cc1	0.0%	2	-19%	0%
CCN(CC)C(=O)CSc1nc2c(sc(=S)n2-c2ccc(C)cc2C)c(=O)[nH]1	3.7%	/	-4%	9%
C/C(CC(=O)NCc1ccccc1Cl)=N/NC(=O)c1ccccn1	-0.7%	/	-62%	-6%
C[N+]1(CC#CC(O)(c2ccccc2)c2ccccc2)CCCC1	2.4%	4	-5%	1%
COc1ccccc1CNC(=O)CCC(=O)Nc1nnc(C)s1	-3.1%	-10	0%	-7%
CC/C(=N\NC(=O)c1ccc(-c2ccccc2)cc1)C12CC3CC(CC(C3)C1)C2	4.7%	1	-5%	5%
O=C(/C=C/c1ccc(F)cc1)NCCCN1CCN(CCCNC(=O)/C=C/c2ccc(F)cc2)CC1	?	-1	-1%	?
CCCNC1=C(C)C(=O)CC1	1.2%	1	-1%	-5%
O=C(Nc1cc(S(=O)(=O)N2CCOCC2)ccc1N1CCOCC1)c1cc(=O)[nH]c2ccccc12	3.1%	-11	-2%	0%
Cc1ccc(-n2c(C)cc(C(=S)N3CCOCC3)c2C)cc1C	-0.1%	3	9%	-1%
COc1cc(-c2cc(C(=O)NCCc3ccc(S(N)(=O)=O)cc3)c3ccccc3n2)cc(OC)c1OC	-2.7%	-2	21%	-15%
CCOc1ccc(N(CC(=O)Nc2ccccc2C(=O)NCc2ccco2)S(C)(=O)=O)cc1	2.6%	-5	-17%	14%
CC(C)c1nnc(NC(=O)CCC(=O)N2CCN(c3ccc(Cl)cc3)CC2)s1	0.3%	/	8%	-11%

Following part
SMILES	Rango-impB inh	GLA inh pH 4.5	miR-21 reporter	Rango dissoc inh
CCN(CC)C1=CC(=[N+]2CCCC2)CC(C)(C)C1	-0.2%	2	19%	-1%
O=S(=O)(Nc1ccccc1F)c1ccc2nsnc2c1	-1.0%	-3	-2%	-2%
CCCc1nc2c(=O)n(C)c(=O)nc-2n(C)n1	-4.5%	-2	?	-10%
CCN(C(=O)CSc1nnc(-c2ccccc2C)n1C)c1c(N)n(Cc2ccccc2)c(=O)[nH]c1=O	0.1%	/	/	1%
C=Cn1cc[n+](CC(=O)c2ccc(Br)cc2)c1	-0.6%	/	-4%	6%
CN1CCC(=NNC(=O)CN(c2cccc(Cl)c2)S(C)(=O)=O)CC1	2.9%	-1	-2%	1%
COc1cc(C(=O)NC2CCCc3ccccc32)cc(OC)c1OC (stereo not given)	-1.3%	/	6%	4%
CCOc1ccc(/C=N\NC(=O)c2c(C)nc3cc(C)ccn23)cc1	-2.1%	/	-6%	1%
CN1CCN(c2ccc(CNC(=O)c3ccco3)cc2)CC1	-2.0%	-1	2%	1%
COc1cc(C(=O)NCCNC(=O)c2ccc(C)nc2)cc(OC)c1OC	3.4%	/	-2%	0%
Cc1ccc(NC(=O)CN(C)C(=O)c2cc(-c3cccs3)nn2-c2ccccc2)cc1	5.7%	/	/	16%
O=C(NCC(c1cccnc1)N1CCN(c2ccc(F)cc2)CC1)C1CCCCC1 (stereo not given)	0.2%	-2	5%	-13%
Cc1ccccc1C(=O)NC1CCN(Cc2nnnn2Cc2ccccc2)CC1	-4.4%	-10	-8%	-2%
Cc1ccc(-n2c(Cc3cccs3)nnc2SCC(N)=O)cc1	2.0%	-13	-4%	0%
O=C(Cn1c(=O)c2c(ncn2Cc2ccccc2)n(Cc2ccccc2)c1=O)N1CCCC1	-4.4%	-18	2%	0%
CCC(CC)C(=O)c1c[nH]c(C(=O)OC)c1	-4.2%	4	-15%	-4%
Cc1cn(C2CC(O)C(CO)O2)c(=O)n(CCCc2ccccc2)c1=O (stereo not given)	0.1%	/	/	8%
N#C/C(=C\Nc1ccc(F)c(Cl)c1)S(=O)(=O)c1ccccn1	-2.0%	-8	-9%	-1%

Part of the list above, showing only Rango dissoc inh, GLA inh pH 4.5 and miR-21 reporter:
SMILES | Rango dissoc inh | GLA inh pH 4.5 | miR-21 reporter
CCOc1cccc(=O)c2c(C)n(-c3ccc(C(=O)O)cc3)c(C)c12 | ? | 1 | -1%
COc1ccc(Cn2c(=O)[nH]c3cc(C(=O)N4CCN(c5ccccc5F)CC4)ccc3c2=O)cc1 | 8% | / | 3%
Cc1cc(S(=O)(=O)N2CCN(c3ccccn3)CC2)ccc1F | -1% | / | 4%
